# Source: PubChem (Johns Hopkins Ion Channel Center)
# KCNQ2 pot: potentiators of rat KCNQ2 potassium channel; actives 0.54% (n = 310,000); O88943; B-score at 10 µM; CHO-K1 KCNQ2, FluxOR thallium flux fluorescence; hits give high values; AID 2239;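 active means fluorescence ratio B-score at least 3 SD of library B-scores, with initial fluorescence B-score within 3 SD, cut at about 5.3 in these data; same plate scores as AID 2156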;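 further: B-score of peak minus minimum over baseline fluorescence ratio after K+ and Tl+ stimulus; positive B-score means potentiation of KCNQ2 with more thallium influx and brighter signal; only the inactives scoring about 0 or higher are listed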
# Target sequence (O88943 whole entry, looked up): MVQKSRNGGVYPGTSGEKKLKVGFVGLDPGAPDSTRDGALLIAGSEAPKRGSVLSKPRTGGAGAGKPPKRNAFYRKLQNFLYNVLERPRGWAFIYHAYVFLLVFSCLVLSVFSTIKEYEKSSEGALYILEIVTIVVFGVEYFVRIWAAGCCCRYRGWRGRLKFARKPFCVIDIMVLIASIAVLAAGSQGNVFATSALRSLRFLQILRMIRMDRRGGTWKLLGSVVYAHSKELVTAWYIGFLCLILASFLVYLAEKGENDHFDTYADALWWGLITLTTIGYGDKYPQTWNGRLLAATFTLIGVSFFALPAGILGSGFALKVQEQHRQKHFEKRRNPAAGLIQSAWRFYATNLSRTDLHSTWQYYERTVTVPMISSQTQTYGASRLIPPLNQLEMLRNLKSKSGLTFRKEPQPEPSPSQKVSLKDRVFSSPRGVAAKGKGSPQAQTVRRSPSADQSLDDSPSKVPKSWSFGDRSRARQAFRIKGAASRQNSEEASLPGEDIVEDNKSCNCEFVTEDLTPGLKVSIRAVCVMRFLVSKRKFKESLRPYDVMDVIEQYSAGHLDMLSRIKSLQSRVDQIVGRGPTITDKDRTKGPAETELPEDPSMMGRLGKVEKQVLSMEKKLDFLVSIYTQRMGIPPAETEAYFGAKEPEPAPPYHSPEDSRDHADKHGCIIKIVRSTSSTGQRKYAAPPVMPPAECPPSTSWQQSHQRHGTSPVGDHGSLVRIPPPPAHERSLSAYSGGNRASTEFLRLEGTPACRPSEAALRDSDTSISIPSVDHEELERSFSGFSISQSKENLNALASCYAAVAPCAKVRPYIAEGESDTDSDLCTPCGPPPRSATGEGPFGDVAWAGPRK
# KCNQ2 pot baseline: recorded beside KCNQ2 pot, whose call it bears; B-score; compound at 10 µM; measured here: initial fluorescence intensity artifact check;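 brightness before thallium and not channel activity; 0 = typical well and far values either way flag optical interference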
# The depositor's hits bear a star; x = no result given. A portion of the library; count on the stated rates, not on these rows.
SMILES,KCNQ2 pot,KCNQ2 pot baseline
Cc1cc(NC(=O)CCC(=O)N(Cc2ccco2)C(C(=O)NCC2CCCO2)c2ccncc2)no1 (configuration not stated),0.38,-1.3
COC(=O)Cc1csc(NC(=O)CSc2nnc3ccccn23)n1,0.31,-0.55
O=C(CN(C(=O)CNS(=O)(=O)c1ccc(F)cc1)c1cccc(F)c1)NCC1CCCO1 (configuration not stated),0.3,-0.06
C=CCn1c(=N)c(C(=O)NCCCOC)cc2c(=O)n3cccc(C)c3nc21,1,-0.05
COC(=O)c1ccc2c(c1)N(C)CCS2,0.01,-0.4
Cc1csc(=NC(=O)c2ccccc2)n1C,0.28,1.2
C=CCn1c(-c2ccccc2)cc(SC)c(C#N)c1=O,0.1,-0.02
O=C(CN(Cc1ccccc1Cl)C(=O)c1csnn1)NC1CCCC1,1.3,1.5
CCN(CC)Cc1cc(CCNC(=O)c2ccc(Cl)cc2)ccc1O,1.2,2.3
CC(=O)N(c1ccc(C)cc1)c1nc(C)cc(C)c1C#N,0.12,0.7
O=S(=O)(Nc1c(O)ccc2ccccc12)c1ccc(F)cc1,1,-1
CN(C)CCCNc1ncnc2c1cnn2Cc1ccccc1Cl,0.34,0.79
Cc1ccc(NS(=O)(=O)c2ccc3c(c2)NC(=O)CCS3)cc1C,1.4,-0.18
C=C(C)C(=O)Nc1cccc(C2=NOC3(C2)C[C@H](C(N)=O)N(C(=O)c2ccccc2)C3)c1 (some centres not stated),0.83,0.11
C/C(=N\NC(=O)c1cc2ccccc2cc1O)c1cc2ccccc2o1,21*,0.29*
O=C1N(c2ccccc2)C2CS(=O)(=O)CC2N1c1ccc(Br)cc1 (configuration not stated),1.1,1.3
CN(CC(=O)NCCCc1ccccc1)S(=O)(=O)c1ccc(Br)cc1,0.1,1.3
Cc1onc(-c2c(F)cccc2Cl)c1C(=O)OCC(=O)NC(c1ccccc1)c1ccccc1,-5.6,x
C=CCN1C(=O)C(O)(CC(=O)c2ccc(OC)cc2OC)c2cc(Br)ccc21 (configuration not stated),0.71,1.6
CC(=O)OCC(=O)[C@@]1(O)[C@H](C)C[C@H]2[C@@H]3CCC4=CC(=O)C=C[C@]4(C)[C@@]3(F)[C@@H](O)C[C@@]21C,0.62,-0.62
Cc1ccc(S(=O)(=O)n2c(=O)oc3ccccc32)cc1,0.64,0.49
CCCC1(CCC)NC(=O)N(CC(=O)c2cc(C)n(-c3ccc4c(c3)OCO4)c2C)C1=O,0.01,0.58
Cc1cc(CNC(=O)COc2ccc([N+](=O)[O-])cc2)c2ccccc2n1,1.1,2
O=C(O)C1CC(=O)N(Cc2cccnc2)C1 (configuration not stated),0.88,-0.22
COC(=O)c1[nH]c2ccccc2c1NC(=O)CCN1CCN(C2CCCCC2)CC1,0.64,-1.1
CN1CCc2c(sc3nc(SCC(=O)NCc4ccco4)n(-c4ccccc4)c(=O)c23)C1,0.22,0.81
Cc1ccc(C(=O)NCC(=O)OCCCn2c(=O)[nH]c3ccccc32)cc1,0.48,1.1
COc1ccccc1N1CCN(C2CCCN(S(=O)(=O)c3ccccc3)C2)CC1 (configuration not stated),1.2,1.2
Cc1ccc(S(=O)(=O)c2c(C)cc(C)[nH]c2=O)c(C)c1,0.41,-0.79
CCOC(=O)C1=NNC2(c3ccc(Cl)cc3)C(=O)N(c3ccc(C)cc3)C(=O)C12 (configuration not stated),0.19,-0.45
CCOc1cc(/C=N/NC(=O)c2cc(-c3cccnc3)nc3ccccc23)ccc1O,0.17,0.74
COc1cc(/C=C/C(=O)O)cc(S(=O)(=O)NCCO)c1OC,1.2,-0.57
O=C(NCc1cn2ccccc2n1)c1ccc(Br)o1,1.1,0.1
O=C1CN(c2ccccc2F)C(=O)CN1c1ccccc1F,0.37,1.3
COCCCNC(=O)CCCC(=O)NCCCOC,1.9,-3.1
Cc1ccc([N+](=O)[O-])cc1NC(=S)NC(=O)c1ccco1,0.34,-0.77
Cc1cc(C(=O)NNc2ccc(F)cc2)no1,0.59,1.4
Nc1ncc2c(n1)-c1ccoc1CC2,0.06,-0.19
CCC(=O)Nc1ccc2c(c1)OCCO2,1.1,1.4
CCOC(=O)CNS(=O)(=O)c1cc(-c2nnc(Nc3ccc4c(c3)OCO4)c3ccccc23)ccc1C,1.1,-0.11
O=C(O)C(Cc1ccccc1)N1C(=O)c2ccccc2C1=O (configuration not stated),1.3,-0.59
O=C1CCCC2=C1C(Cc1ccccc1)C1=C(CCCC1=O)O2,0.01,0.35
CCn1cc(CNC(=O)NC2CCCCC2)c(C)n1,0.03,-0.2
O=C(O)c1cc(-c2cccs2)[nH]n1,0.13,-2.2
COC(=O)[C@H](Cc1ccccc1)NC(=O)NCCc1ccc(S(N)(=O)=O)cc1,1.4,-1.1
Cc1ccc(-c2ccnc3c(Br)c(C)nn23)cc1,0.77,1.4
CCn1cc(S(=O)(=O)Nc2ncccn2)cn1,0.2,-0.8
Cc1ccsc1-c1n[nH]c(=S)n1CC(C)C,0.6,-1.8
O=C(CNC(=O)COc1ccccc1)NCCc1ccccn1,0.58,0.29
O=C(COc1ccccc1)NCC(=O)N/N=C/c1ccc(Br)cc1,1.7,-3.4
CCC1CCCCN1CCCNC(=O)c1cn(C)c2ccc(S(=O)(=O)N3CCOCC3)cc2c1=O (configuration not stated),2.3,0.04
CCOC(=O)c1c(OCCO)noc1N,0.03,-0.03
Cc1ccnc(NC(=O)c2cc([N+](=O)[O-])cc([N+](=O)[O-])c2)c1,0.16,0.09
COC(=O)c1ccc(NCCC(=O)O)cc1,1,-0.54
CCOc1ccccc1NC(=O)NC(=O)N(C)S(=O)(=O)c1ccc(C)cc1,1.6,-0.34
COC(=O)c1cccc(NC(=O)/C=C/c2ccc3c(c2)OCO3)c1,1.5,-0.51
Cc1ccc(NC(=O)C2C3CCCCC32)cc1[N+](=O)[O-] (configuration not stated),0.19,-0.46
Cc1ccc(C2=NS(=O)(=O)N(C)C(C(=O)NCc3ccccc3)=C2)cc1,0.04,-0.98
COCC1CCCN(C(=O)c2cc(COc3ccc4ncccc4c3)on2)C1 (configuration not stated),1.1,1.7
COc1ccc(C(C)(C)C)cc1NC(=O)Nc1ccc2c(c1)OCO2,2.7,-0.1
# Next part.
SMILES,KCNQ2 pot,KCNQ2 pot baseline
O=C(N/N=C/c1cc(O)ccc1[N+](=O)[O-])c1ccc2c(c1)OCCO2,0.03,-1.4
COc1ccc(NC(=S)NC2CCS(=O)(=O)C2)cc1 (configuration not stated),0.2,-0.04
O=C1CCCC(=O)N1c1ccc(NCCOCCO)c([N+](=O)[O-])c1,0.77,0.06
CC(=O)c1cccc(NS(=O)(=O)c2cc(OCC(N)=O)c(C)cc2Cl)c1,1.1,-0.11
O=C(CN(Cc1ccc(F)cc1)C(=O)Cn1nnc2ccccc21)NCC1CCCO1 (configuration not stated),0.34,-0.24
CN(C)C=Nc1nonc1-c1ccc(Cl)cc1,0.09,1.7
COc1ccc(CCNC(=O)C2CC(c3ccccc3[N+](=O)[O-])=NO2)cc1 (configuration not stated),0.62,1.4
CCc1ccccc1S(=O)(=O)Cc1ccc(C(=O)NCc2ccc3c(c2)OCO3)o1,1.1,-0.37
CN(C)S(=O)(=O)n1cc(/C=C(\NC(=O)c2ccccc2)C(=O)NCCCN2CCOCC2)c2ccccc21,0.54,-0.75
Cc1cc(C)c(S(=O)(=O)Nc2cccc(/C=C/C(=O)O)c2)c(C)c1,0.51,-0.69
COC(=O)C1CCN(C(=O)COC(=O)c2oc3ccccc3c2C)CC1,1.4,0.14
Oc1ccccc1CNCc1ccccc1,0.86,1.2
Cc1cc(C)nc(N/N=C/c2ccc(N3CCOCC3)cc2)n1,1.8,-0.41
O=C(C1CCN(S(=O)(=O)N2CCCCC2)CC1)N1CCCCC1,0.24,-0.08
CCN(CC)P(=O)(/C(Cl)=C\Nc1c(C)n(C)n(-c2ccccc2)c1=O)N(CC)CC,1,-1.6
O=C(Nc1ccc(F)cc1F)NC1CCCCCCC1,1.2,-0.04
C/C(CC(=O)c1ccccc1)=N\NC(=O)CC#N,0.44,-0.37
O=S(=O)(Nc1nccs1)c1ccc(Br)cc1,1.1,-0.57
CC(C)=NNc1nc2sc3c(c2c(=O)[nH]1)CC(C)(C)OC3,0.05,2.2
COc1ccc(C(C(=O)NCc2ccccc2)N(C(=O)c2snc(C(N)=O)c2N)C2CCCC2)cc1O (configuration not stated),1.7,0.22
N/C(Cc1ccc([N+](=O)[O-])cc1)=N\OC(=O)C1CCCCC1,1.5,-1.4
O=C(Cn1c(=O)n(-c2ccc(F)cc2)c(=O)c2sccc21)N1CCCC1,1.1,2.1
Clc1ccc(CN2CCN(c3ncccn3)CC2)c(Cl)c1,1.9,-0.66
Cc1nc(N)ncc1Sc1ccccc1,1.2,1.1

# Individual results from the entries so far.
# In KCNQ2 pot, O=S(=O)(Nc1nccs1)c1ccc(Br)cc1 has the entry 1.1
# In KCNQ2 pot baseline, CCN(CC)P(=O)(/C(Cl)=C\Nc1c(C)n(C)n(-c2ccccc2)c1=O)N(CC)CC has the entry -1.6
# In KCNQ2 pot baseline, O=C(Cn1c(=O)n(-c2ccc(F)cc2)c(=O)c2sccc21)N1CCCC1 has the entry 2.1

# A draw from above in order of length of the SMILES, highest first.
SMILES,KCNQ2 pot,KCNQ2 pot baseline
CCN(CC)P(=O)(/C(Cl)=C\Nc1c(C)n(C)n(-c2ccccc2)c1=O)N(CC)CC,1,-1.6
CC(C)=NNc1nc2sc3c(c2c(=O)[nH]1)CC(C)(C)OC3,0.05,2.2
O=C(C1CCN(S(=O)(=O)N2CCCCC2)CC1)N1CCCCC1,0.24,-0.08
O=S(=O)(Nc1nccs1)c1ccc(Br)cc1,1.1,-0.57
Cc1nc(N)ncc1Sc1ccccc1,1.2,1.1

# (further entries)
SMILES,KCNQ2 pot,KCNQ2 pot baseline
COC(C(=O)NC1CCCCCCC1)c1ccccc1 (configuration not stated),3.7,-1
CCCCNC(=O)N1CCOCCOCCN(C(=O)NCCCC)CCOCC1,0.41,-0.14
O=C(NC(=S)NCc1ccccc1)c1ccccc1Br,0.59,1.1
O=C(CC1Oc2ccccc2NC1=O)NCCc1ccccc1 (configuration not stated),1.5,-0.68
CC(=O)NC12CC3CC(C1)CC(C(=O)NCc1ccc(C)cc1)(C3)C2,0.01,0.56
COc1cc(C2C(C#N)=C(N)Oc3cc(C)n(CC4CCCO4)c(=O)c32)cc2c1OCO2 (configuration not stated),0.45,0.78
CC(OC(=O)Cc1n[nH]c(=O)c2ccccc12)C(=O)Nc1cc(Cl)cc(Cl)c1 (configuration not stated),0.93,0.06
O=C(Nc1ccccc1N1CCCCC1)c1ccc(-c2ccc(Cl)cc2)o1,0.43,-1.5
O=c1/c(=C\c2ccc3c(c2)OCO3)sc2n1CCCN=2,0.52,0.95
COc1ccc(OCCC(=O)OCC(=O)NC(=O)NC(C)(C)C)cc1,2.2,-1.7
COc1ccc(/C=C2\SC(=O)N(CCC(=O)Nc3ccccc3)C2=O)cc1OC,0.77,-1
CCN(Cc1ccccc1)c1c(C(=O)O)cnc2c1cnn2C,0.45,-2.2

# Compound profiles (already shown):
# `CCN(Cc1ccccc1)c1c(C(=O)O)cnc2c1cnn2C` across the screens: KCNQ2 pot: 0.45; KCNQ2 pot baseline: -2.2
# `O=C(NC(=S)NCc1ccccc1)c1ccccc1Br` across the screens: KCNQ2 pot: 0.59; KCNQ2 pot baseline: 1.1

# A run of entries from the list above, as a working copy:
SMILES,KCNQ2 pot,KCNQ2 pot baseline
COC(C(=O)NC1CCCCCCC1)c1ccccc1 (configuration not stated),3.7,-1
CCCCNC(=O)N1CCOCCOCCN(C(=O)NCCCC)CCOCC1,0.41,-0.14

# (continued)
SMILES,KCNQ2 pot,KCNQ2 pot baseline
Nc1nnc(-c2ccccc2Cl)s1,2,-1.2
O=C(NC(Cc1ccccc1)C(=O)O)/C(=C\c1ccc(F)cc1)NC(=O)c1ccco1 (configuration not stated),0.28,-2.4
COc1ccc(-n2cnnc2SCC(=O)Nc2ccccc2F)cc1,0.44,-0.11
CCOC(=O)N1CCN(C(=O)c2cc3c(=O)[nH]c4ccccc4c3s2)CC1,1.2,-1.1
Cc1cccc(N2CCN(C(c3ccncc3)c3nnnn3C(C)(C)C)CC2)c1C (configuration not stated),0.52,1.8
O=C(CSc1ncccn1)N/N=C/c1ccccc1[N+](=O)[O-],1.5,-1.9
CC1CC(C)CN(C(=O)C(C)N(C)CC(=O)Nc2ccc(Cl)cc2)C1 (configuration not stated),1.1,-1.4
Cn1c(=O)oc2cc(NC(=O)CCl)ccc21,0.92,-0.93
Cc1nc2sc(C(=O)OC(C)C)c(N)c2c(C)c1C,0.89,-0.48
Cc1ccc(C2=N/C(=C\N(C)C)C(=O)O2)cc1,1.1,0.02
COc1ccc(NC(=O)C2CC2)cc1OC1CCCC1,1.2,1.2
Cc1cc([N+](=O)[O-])nn1CC(=O)N/N=C/c1ccccc1Br,1.1,-1.5
Cc1ccc(-c2nnc(SCC(=O)N3CCOCC3)nc2-c2ccc(C)cc2)cc1,1.9,-0.29
COC(CNC(=O)c1ccc2c(c1)ncn2C1CCCCCC1)OC,1.4,1.1
CCCN(CC(=O)Nc1ccc(F)c(F)c1F)C(=O)c1ccc2c(=O)n3c(nc2c1)CCC3,1.1,-1.1
O=C(Nc1ccc(Oc2ccccc2)cc1)C1CCCN(c2ncccn2)C1 (configuration not stated),0.06,-0.94
COC(=O)C1CCN(C2CC(=O)N(c3cc(C)cc(C)c3)C2=O)CC1 (configuration not stated),1.3,-0.04
CC(C)(C)CN1CCN(CCCc2ccccc2)C(CCO)C1 (configuration not stated),0.12,0.04
CCN(CC)CCN(C(=O)c1ccc2ccccc2c1)c1nc2ccc(F)cc2s1,0.09,0.2
COC(=O)Nc1ccc(S(=O)(=O)N2CCC(C)CC2)cc1,1.7,0.04
CN(CCc1ccccn1)S(=O)(=O)c1ccc2c3c(cccc13)C(=O)N2,0.74,-0.23
CCCC(C)c1nnc(NC(=O)CS(=O)(=O)Cc2ccccc2)s1 (configuration not stated),0.05,0.17
CCCCn1c(SCC(=O)c2ccc(O)c(O)c2)nc2ccsc2c1=O,0.01,-1
